BJeLR lethal – MLPCN primary cell-based screen for lethality selective to Ras in HRASV12 cells | BJeLR (HRASV12) viability, CellTiter-Glo ATP luminescence, 48 h; reference of the scale not given here | inhibition, % (concentration not given with the values) | 300,000 tested, 0.17% active;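 active means replicate mean above 50%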;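 further: 50 nL library stock added to about 25 µL; numbers are from one replicate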
Numbers without * were called inactive.

Structure | BJeLR lethal
Cc1cc2ncn(/N=C/c3cc(Br)ccc3O)c2cc1C | -4.6
Cc1cc(/C=C(\C#N)c2nnc(N3CCOCC3)n2-c2ccccc2)c(C)n1-c1ccccc1 | 3.3
C#CCOCCOCCOCCNc1nc(N2CCN(C(=O)[C@H](Cc3ccc(O)cc3)n3cc([C@@H](N)C(C)CC)nn3)CC2)nc(N2CCN(C(=O)[C@H](Cc3cc4ccccc4[nH]3)n3cc([C@@H](N)Cc4ccc(O)cc4)nn3)CC2)n1 (some centres undefined) | 4.0
O=C1c2ccccc2C(=O)C12OC2c1ccc(Cl)cc1 (centres undefined) | -2.6
C/C(Cc1ccccc1)=N\NC(=O)CNC(=O)/C=C\c1ccccc1 | 2.6
NCc1c(O)ccc2ccccc12 | -3.2
CCCOc1ccc(/C=N/NC(=S)Nc2ccccc2[N+](=O)[O-])c(O)c1 | 26.8
COc1ccc(CNC(=O)[C@H](C)[C@@H]2C[C@@]2(C)[C@@H](NC(=O)OCc2ccccc2)c2ccccc2)cc1OC | 0.9
O=C1NC(=O)N(c2ccccc2)C(=O)/C1=C\c1ccc([N+](=O)[O-])o1 | 6.2
Brc1ccc(/C=N/Nc2nncc(-c3ccccc3)n2)o1 | -6.3
O=[N+]([O-])c1ccccc1S(=O)(=O)Nc1cccc2cccnc12 | 22.3
O=C(OCn1ncc(Br)c(Br)c1=O)c1c(F)cccc1F | -33.3
CCOC(=O)c1ccc(N2CCOCC2)c(NC(=O)c2c(-c3ccccc3)noc2C)c1 | 21.1
COC(=O)CCCC1=CC2=CC(=O)C(C)(OC(=O)c3cccs3)C(=O)C2=CO1 (centres undefined) | 9.1
CC(=O)N1CCc2cc(C(=O)CN3CCCN(Cc4ccc(F)cc4)C3)ccc21 | 2.1
Cc1ccc(SCC(=O)c2ccc(CC(=O)O)s2)cc1 | 11.9
COC(=O)C1=C(C(=O)OC)[C@@H]2N(Cc3ccccc3)c3ccccc3[C@@]23C[C@@H](C(=O)OC)N(C(=O)C2CCC2)C3=N1 | 6.8
Cc1ccc(S(=O)(=O)Nc2c(Cl)c(Cl)c(O)c3ccccc23)cc1 | -12.1
CC(C)(C)C1=CC=C(C(C)(C)C)C(=O)C1=O | 25.2
C#CCOCCOCCOCCNc1nc(N2CCN(C(=O)C([C@@H](C)CC)n3cc(C(N)CO)nn3)CC2)nc(N2CCN(C(=O)C([C@@H](C)CC)n3cc(C(N)COC(=O)C(F)(F)F)nn3)CC2)n1 (some centres undefined) | 4.9
Clc1ccc(NCc2ccsc2)cc1 | 5.0
Nc1nc(CSc2nc3ccccc3s2)nc(Nc2ccccc2)n1 | -0.6
N#CC(C(=O)NC1CCCCC1)c1nc2ccccc2nc1N1CCN(c2ccc(F)cc2)CC1 (centres undefined) | -8.9
O=C1C2C3C=CC(C3)C2C(=O)N1CNc1ccc(O)cc1 (centres undefined) | 2.4
N#CC1=C(N)N2C(=C(C#N)C1c1ccccc1)Sc1ccccc12 (centres undefined) | 11.4
CCc1ccc(-c2csc(NC(=O)COC(=O)CCc3nc4ccccc4s3)n2)cc1 | 1.3
c1ccc(CSc2nnc3c4ccccc4c4ccccc4c3n2)cc1 | -1.2
CCC(=O)NC(/C=C/c1ccccc1)c1cc([N+](=O)[O-])c2cccnc2c1O (centres undefined) | 9.5
CC1CC(OC(=O)CN2CCCCC2)CC(C)(C)C1 (centres undefined) | -9.1
CCc1ccc(Nc2n[n+](-c3ccccc3)c(/C=C/c3ccccc3)s2)cc1 | 2.5
O=C(CC(=O)c1ccccc1[N+](=O)[O-])c1ccccc1 | 0.3
CCCn1c2c(c(O)c(C(=O)Nc3nc(C)cs3)c1=O)CCCC2 | -6.9
N#CC1=C(N)SC(N)=C(C#N)C1c1ccc(C(F)(F)F)cc1 | -3.8
CCN(CC)C(=O)C1=C(C)NC(=O)NC1c1ccccc1F (centres undefined) | 4.9
O=C(NCCN1CCOCC1)c1cc(Cl)ccc1[N+](=O)[O-] | -10.9
Cc1ccc(C)c(C(C)NC(=O)C2C3CCC(O3)C2C(=O)O)c1 (centres undefined) | 3.5
COc1cccc([C@@H]2Oc3ccc(OC)cc3C(=O)[C@H]2OC(=O)N[C@H](C)C2CCCCC2)c1 | 4.2
N#Cc1c(-c2ccccc2Cl)cc(-c2ccccc2)[nH]c1=S | -0.1
CCOc1cc(CNc2ccc3c(c2)CCC3)ccc1OC | 4.3
CC(=O)c1ccc(N2CCN(CC(=O)Nc3ccc(N4CCOCC4)cc3)CC2)cc1 | 11.7
COc1ccccc1-c1c(NC(=O)c2ccco2)n(-c2ccccc2)nc(C)c1=O | 1.9
CCOc1cc(C=C2C(=O)NC(=O)NC2=O)cc([N+](=O)[O-])c1O | 5.7
CCCCN1C(=O)/C(=C/c2ccc(N3CCCCCC3)cc2)C(=O)NC1=S | 0.6
CC(C)c1ccc(N2CCN(C(=O)c3ccccc3NC(=O)/C=C(\C(=O)O)c3ccccc3)CC2)cc1 | -3.7
N=C1c2ccccc2CN1c1ccc(N2CCOCC2)c(S(=O)(=O)Nc2ccc(Cl)cc2)c1 | 5.3
CC(C)(C)c1cc(O)c(C(C)(C)C)cc1O | -3.4
CC(C(=O)Nc1ccccc1F)N1CCN(C)CC1 (centres undefined) | -9.7
CN1CCN(C(c2ccc(C(F)(F)F)cc2)c2ccc3cccnc3c2O)CC1 (centres undefined) | 10.5
COC(=O)/C=C1/S/C(=N/N=C/c2ccco2)NC1=O | -5.3
CCOC(=O)c1c2ccc(OCC(=O)N/N=C/c3ccc(Cl)cc3)cc2n2ccccc12 | -8.4
CC(C)(C)c1ccc(O)c(N)c1 | -6.5
C=C1/C(=C\C=C2/CCC[C@]3(C)[C@@H]([C@H](C)/C=C/[C@@H](O)C4CC4)CC[C@@H]23)C[C@@H](O)C[C@@H]1O | 14.7
Cn1c(SCC(=O)N=Nc2c(O)[nH]c3ccccc23)nc2ccccc21 | -4.6
CCOc1ccccc1Nc1nc(-c2sc(NC(=O)c3ccc([N+](=O)[O-])cc3)nc2C)cs1 | 77.5*
COC(=O)[C@@H]1CC[C@H](C)[C@@H](c2ccc(C)cc2)N1C(=O)c1ccc(/C=N/OC[C@@H](O)[C@H]2O[C@@H]3OC(C)(C)O[C@@H]3[C@H]2O)cc1 | -8.7
Cc1ccc(-n2nc(C(=O)N/N=C/c3cccc(C(F)(F)F)c3)c3ccccc3c2=O)cc1C | -5.7
COCCCNC(=S)N/N=C/c1cccc(OC)c1O | -3.8
Cc1ccc2cc3c(N)c(C(=O)N4CC(=O)Nc5ccccc54)sc3nc2c1 | 22.2
Cc1ccccc1Nc1nnc(SCc2nc3ccccc3c(=O)[nH]2)s1 | 7.3
COc1ccc(-c2cnnc(N/N=C/C(C)=C/c3ccccc3)n2)cc1 | 10.3

Continuation:
Structure | BJeLR lethal
O=C(NCCN1C(=O)S/C(=C\c2cccs2)C1=O)c1ccc(=O)[nH]c1 | -13.6
C=CCn1c(SCC(=O)OC)nc2sc3c(c2c1=O)CCN(C)C3 | -3.2
CC(=O)[C@@H]1[C@@H]2C(=O)N(c3ccc(F)c(Cl)c3)C(=O)[C@@H]2C2c3ccccc3C=CN21 (some centres undefined) | 1.4
c1ccc(COc2ccc(-c3sc(Nc4ccccc4)n[n+]3-c3ccccc3)cc2)cc1 | -7.1
COCCCn1c(-c2ccc(OC)cc2)nc2nc3ccccc3nc21 | 9.9
CCC(=O)N1CC2(CC(c3cccc(NC(=O)COc4ccc(Cl)cc4)c3)=NO2)C[C@@H]1C(N)=O (some centres undefined) | -9.9
COC1CC(OC2CCC3(C)C(CCC4C3CCC3(C)C(C5=CC(=O)OC5)C(OC(C)=O)CC43O)C2)OC(C)C1OC1OC(COC2OC(CO)C(O)C(O)C2O)C(O)C(O)C1O (centres undefined) | 50.9*
O=C(COC(=O)c1ccccc1NS(=O)(=O)c1cc([N+](=O)[O-])ccc1Cl)c1ccccc1 | 17.6
Cn1c(=O)c(C(=O)COC(=O)c2cc(C(F)(F)F)nc3c(C(F)(F)F)cccc23)c(N)n(CC2CC2)c1=O | 3.4
COCCNC(=S)N/N=C/c1ccc(OCc2ccc(C(=O)OC)cc2)c(OC)c1 | -4.7
CCCCC(=O)N(Cc1ccc(-c2ccccc2-c2nn[nH]n2)cc1)[C@H](C(=O)O)C(C)C | -16.9
COc1ccc(O[C@H]2C=C[C@@H](c3ccccc3)O[C@@H]2CO/N=C(\C)CCC(=O)OC[C@H]2O[C@H](c3ccccc3)C=C[C@@H]2Oc2ccc(OC)cc2)cc1 | -5.8
COc1ccc2cc(/C(C)=N/NC(=S)Nc3cc(S(=O)(=O)N4CCOCC4)ccc3N3CCOCC3)ccc2c1 | -6.5
O=C1Nc2ccccc2N2CCCC12 (centres undefined) | -5.1
Cc1ccc(C)c(NC(=O)/C(C#N)=C/c2ccc(Sc3nncn3C)c([N+](=O)[O-])c2)c1 | -2.0

Structural class: those above with a cyano group.
Structure | BJeLR lethal
Cc1cc(/C=C(\C#N)c2nnc(N3CCOCC3)n2-c2ccccc2)c(C)n1-c1ccccc1 | 3.3
N#CC(C(=O)NC1CCCCC1)c1nc2ccccc2nc1N1CCN(c2ccc(F)cc2)CC1 (centres undefined) | -8.9
N#CC1=C(N)N2C(=C(C#N)C1c1ccccc1)Sc1ccccc12 (centres undefined) | 11.4
N#CC1=C(N)SC(N)=C(C#N)C1c1ccc(C(F)(F)F)cc1 | -3.8
N#Cc1c(-c2ccccc2Cl)cc(-c2ccccc2)[nH]c1=S | -0.1
Cc1ccc(C)c(NC(=O)/C(C#N)=C/c2ccc(Sc3nncn3C)c([N+](=O)[O-])c2)c1 | -2.0

(continued)
Structure | BJeLR lethal
NC(=O)N=Nc1c(O)[nH]c2c(Br)cc(Br)cc12 | 1.4
O=C(c1ccccc1)[C@H]1[C@H](c2ccccc2)[C@@]2(N=C(c3ccccc3)OC2=O)C2c3ccccc3C=NN21 (some centres undefined) | -5.9
O=C1N[C@H](C(=O)O)CS1 | -2.5
CC1(C)Oc2ccc3ccc(=O)oc3c2/C(=C/NCCN/C=C2\C(=O)C(C)(C)Oc3ccc4ccc(=O)oc4c32)C1=O | -0.2
O=c1c(-c2ccccc2)c1-c1ccccc1 | -10.4
CCCCc1c(C)c(C#N)c2nc3ccccc3n2c1Cl | 127.5*
O=C(Nc1nccs1)c1c(O)c2cccc3c2n(c1=O)CCC3 | -0.2
O=C(Cn1nnc2ccccc21)OCC(=O)c1ccc(Cl)cc1 | -10.3
O=C(O[C@@H]1Cc2c(O)cc(O)cc2O[C@@H]1c1cc(O)c(O)c(O)c1)c1cc(O)c(O)c(O)c1 | 3.7
C(=C\c1ccc(/C=C/c2ccccc2)nn1)/c1ccccc1 | 3.7
C/C(=N\NC(=O)c1ccc2nc[nH]c2c1)c1ccc([N+](=O)[O-])cc1 | -0.2
COc1ccc2nc3sc(C(=O)NCc4cccs4)c(N)c3cc2c1 | 10.5
Cc1ncc(CO)c(/C=N/NC(=O)c2cc(O)c(O)c(O)c2)c1O | -1.2
Cc1c(Cl)cccc1Nc1ncccc1C(=O)OCC(O)CO (centres undefined) | -3.4
O=C(Cc1cccs1)Nc1nnc(Cc2ccc(F)cc2)s1 | -10.3
CN(C)c1nc(NCc2ccccc2)nc(N/N=C/c2ccccc2F)n1 | 1.9
FC(F)Oc1ccc(/C=N/N2CCCCC2)c(OC(F)F)c1 | 18.3
Cc1ccc(NC(=O)C(=O)NCc2ccc(/C=N/NC(=O)c3c(C)nc4cc(C)ccn34)o2)cc1 | -2.6
COc1ccc(/C(C)=N/Nc2cc(C(F)(F)F)ccc2Cl)c(OC)c1 | -8.1
O=S(=O)(c1ccc2c(c1)OCCO2)N1CCN(c2nc(-c3cccnc3)nc3ccccc23)CC1 | 1.3
COCCN1C(=O)N[C@@H](CCc2ccccc2)C(C(C)=O)=C1C | -3.1
COc1ccccc1/C=C/C=N/NC(=O)c1ccc2nc[nH]c2c1 | -3.0
CCCCCCC12CCC(C(=O)O)(CC1)CC2 | -5.9
O=C1CSC(=S)N1c1ccc(F)cc1 | -10.8
O=C(CCC1CCCNC1)c1ccccc1 (centres undefined) | 18.7
O=C(Nc1ccccc1)O[C@@H]1C[C@H]2CCC(=O)N3CC[C@@H](C1)[C@@H]23 | 19.4
CCCCCCN(C(=O)CCCCCN1C(=O)NC(c2ccc(-c3ccccc3)cc2)C(C(=O)OCc2ccccc2)=C1C)C(C(=O)NCCCC)c1ccc(OCC(=O)OC)cc1 (centres undefined) | 7.7
O=S(=O)(c1ccccc1)N1CCN(c2nc(-c3cccs3)nc3ccccc23)CC1 | 0.4
CC(C)OC(=O)c1c(NC(=O)c2cnn3c2NC(c2ccccc2)CC3C(F)F)sc2c1CCCC2 (centres undefined) | -1.4
COc1ccc(O[C@H]2C=C[C@@H](c3ccccc3)O[C@@H]2CO/N=C(\C)CCN2CCc3nc(-c4ccccc4)c(-c4ccccc4)cc3C2)cc1 | 2.2
COc1ccccc1Nc1nc(-c2sc(NC(=O)c3ccc([N+](=O)[O-])cc3)nc2C)cs1 | -3.8
Cn1c(=O)c2[nH]c(-c3ccccc3O)nc2n(C)c1=O | 4.3
O=C1NN(c2ccccc2)C(=O)/C1=C/c1cccs1 | 0.5
COC(C/C=C\C(=O)COCc1ccccc1)OC | 8.9
Cc1ccccc1NC(=O)COC(=O)c1cc(=O)c2ccccc2o1 | -3.7
O=c1[nH]cc(N=Cc2cc([N+](=O)[O-])ccc2O)c(=O)[nH]1 | 7.0
COc1ccc(N2CCN(C(=O)c3ccc4c(c3)NC(=O)C(CSCc3ccc(C)cc3)N4)CC2)cc1 (centres undefined) | -4.3
COC(=O)C1=C(C(=O)OC)[C@@H]2Nc3ccccc3[C@@]23C[C@@H](C(=O)OC)N(C(=O)c2ccc(Br)cc2)C3=N1 | -2.6
COc1cc(C)c(Cc2cnc(N)nc2N)cc1OC | -6.6
CCC1(CC)C(=O)C2=C3C1[C@H](C(=O)OC)CC(C(=O)OC)C[C@H]3n1c(=O)n(-c3ccccc3)c(=O)n1[C@H]2C (some centres undefined) | 0.1

This is a subset; count on the stated rates, not on these rows.
